# 2A StopGo = FMDV 2A StopGo reporter, luciferase signal | human cells with a luciferase reporter of 2A StopGo recoding; control for the full effect not named in the record | Potency, µM (titrated, usually from 57.9 µM), for the others: at the highest dose signal change, negative = less light | actives 1.2% (n = 410,000); active = well fitted falling curve with a large enough effect; inconclusive = small, poorly fitted or top-dose-only effect; inactive = no such curve, though single readings can be large or run the other way; tested in HEK293T cells; note: nearly all actives have a fitted effect of over 45% in size; luciferase light after 4 h
# RE007 growth inh = less growth of the S. pombe RE007 Vpr strain | S. pombe RE007 Vpr strain, BacTiter-Glo ATP luminescence, 24 h; control for the full effect not named in the record | Potency, µM (top dose mostly 92.2 µM), without a hit: at the top dose activity change, negative = less growth | actives 0.21% (n = 360,000); active = well fitted falling curve with a large enough effect; inconclusive = small, poorly fitted or top-dose-only effect; inactive = no such curve, though single readings can be large or run the other way;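 note: nearly all actives have a fitted effect of over 50% in size; the assay follows cell death caused by Vpr and the record does not say whether a fall means rescue or toxicity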
#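 Fission yeast RE007 carrying one integrated HIV-1 vpr copy, seeded at OD 0.01 in PMG+AL medium with 23 nL pinned compound. Grown 24 h at 30 degrees; viability read by BacTiter-Glo luminescence after 5 min.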
# Active calls of the source: *; ? = inconclusive; [ ] = remark or other dose. % is set by controls: 0 for no effect and ±100 for the full control effect; potency is the fitted concentration of half-maximal effect. Some of the compounds tested; the hit share may differ from the screen's.
1: CCCS(=O)(=O)NC(=O)C1(C)CCN(C(=O)c2cccc(C)c2C)C1 (stereo not drawn)
2: OCCCn1c(C2CCCN2c2nc(-c3ccc(Cl)cc3)cs2)nc2cc(Cl)c(N3CCCCC3)cc21 (stereo not drawn)
3: O=C(Nc1cccc(Cl)c1)Nc1nnc([C@@H]2C[C@H](O)[C@@H](CO)O2)s1
4: O=C(c1ccco1)N1Cc2ccccc2-n2nncc2C1
5: CC(NC(=O)COC(=O)c1ccc2c(=O)n3c(nc2c1)CCCCC3)c1ccc(F)cc1 (stereo not drawn)
6: OC1COC(O)C(O)C1O (stereo not drawn)
7: Cc1cc(C)cc(C(O)c2ncc(-c3ccccc3Cl)[nH]2)c1 (stereo not drawn)
8: C#CCNC(=O)C[C@@H]1C[C@@]2(C(=O)OC)CCCCC=C2N(Cc2cccc3ccccc23)C1=O
9: OCC[C@@H]1C[C@H](O)[C@@H](O)[C@@]2(OCc3ccc4ccccc4c32)O1
10: Cc1cc2nc(-c3cccc(Cl)c3)c(CC(C)(C)C)n2c(C)c1Br
screen / no.	1	2	3	4	5	6	7	8	9	10
2A StopGo	0%	?	13%	-5%	-8%	-14%	0%	-24%	-5%	-16%
RE007 growth inh	10%	-5%	-6%[18.4 µM]	13%	15%	1%[18.4 µM]	?	-26%	9%	-7%

11: O=C(NC1CCCCC1)C(c1cc2ccccc2o1)n1c(=O)c(-c2ccco2)nc2ccccc21 (stereo not drawn)
12: C(=C\c1ccccc1)/CN1CCN(C(c2nnnn2Cc2ccccc2)C2CC2)CC1 (stereo not drawn)
13: CCOC(=O)C1=CN(Cc2ccc(Br)cc2)S(=O)(=O)N(C)C1C (stereo not drawn)
14: CN1CCN([C@H]2CS(=O)(=O)N[C@@H]2COCc2ccccc2)CC1
15: O=C(NCc1cccc(F)c1)Nc1nnc([C@@H]2C[C@H](O)[C@@H](CO)O2)s1
16: CC(NC(=O)c1ccc(Cl)c(S(=O)(=O)NC2CC2)c1)c1ccco1 (stereo not drawn)
17: COc1cccc(CNc2nc3cc(-c4cccc(C(F)(F)F)c4)sc3c(=O)n2C)c1OC
18: COc1cc(C)ccc1S(=O)(=O)NC(=O)C1(C)CCN1C(=O)Cc1ccc(Cl)cc1Cl (stereo not drawn)
19: CC(=O)Nc1cc(-c2ccc(N3CCN(C)CC3)cc2)cn2c(-c3ccc(F)c(Cl)c3)cnc12
20: CC1(C(=O)Nc2cccc(C#N)c2)CCN1C(=O)CCc1ccccc1 (stereo not drawn)
screen / no.	11	12	13	14	15	16	17	18	19	20
2A StopGo	20%	0%	-23%	-18%	2%	25%	?	-9%	-27%	-19%
RE007 growth inh	0%	-9%	11%	1%	9%	14%	10%	1%[18.4 µM]	0%	-12%

21: C[C@@H]1CN([C@H](C)CO)C(=O)c2cc(Br)cnc2O[C@@H]1CN(C)C(=O)Nc1ccccc1
22: COc1cccc(Nc2nc(C(N)COCc3ccccc3)cs2)n1 (stereo not drawn)
23: CC1=C(C(=O)N(C(C)C)C(C)C)CC(CC(=O)NCCc2ccccn2)C(=O)N1Cc1ccc(F)cc1 (stereo not drawn)
24: O=C(Nc1ccc(Nc2ccccc2)cc1)c1ccccc1
25: COc1ccc(CCn2c(=N)c(C(=O)NCc3ccco3)cc3c(=O)n4ccccc4nc32)cc1OC
26: O=C(OC1CC2CC1[C@H]1CCCCN1C2=O)N1CCN(S(=O)(=O)c2ccccc2)CC1 (stereo partly drawn)
27: CNC(=O)OCc1snc(-c2ccccc2)c1COC(=O)NC
28: N#Cc1ccc(Nc2nc(-c3ccccc3)cs2)cc1
29: COc1cc(C(=O)N2CCC2(C)C(=O)O)cc(OC)c1OC (stereo not drawn)
30: COCCCN(C(=O)CSCC(=O)Nc1ccc(C)cc1)c1c(N)n(Cc2ccccc2)c(=O)[nH]c1=O
screen / no.	21	22	23	24	25	26	27	28	29	30
2A StopGo	-18%	-6%	-3%	62%[activator]	-13%	-15%	-9%	45%[activator]	-29%	-2%
RE007 growth inh	-15%	-3%[18.4 µM]	-14%	-25%	3%	4%	1%	?	6%	-2%

# Reprinted at random: 5 records from the list, in no set order.
21: C[C@@H]1CN([C@H](C)CO)C(=O)c2cc(Br)cnc2O[C@@H]1CN(C)C(=O)Nc1ccccc1
13: CCOC(=O)C1=CN(Cc2ccc(Br)cc2)S(=O)(=O)N(C)C1C (stereo not drawn)
5: CC(NC(=O)COC(=O)c1ccc2c(=O)n3c(nc2c1)CCCCC3)c1ccc(F)cc1 (stereo not drawn)
20: CC1(C(=O)Nc2cccc(C#N)c2)CCN1C(=O)CCc1ccccc1 (stereo not drawn)
25: COc1ccc(CCn2c(=N)c(C(=O)NCc3ccco3)cc3c(=O)n4ccccc4nc32)cc1OC
screen / no.	21	13	5	20	25
2A StopGo	-18%	-23%	-8%	-19%	-13%
RE007 growth inh	-15%	11%	15%	-12%	3%

# Carrying on.
31: COc1ccc(CN(C)CCCn2cnc3c(OCc4ccccc4)ncnc32)cc1
32: CCOc1ccc2nc(S(=O)(=O)NC(=O)C3(C)CCN3C(=O)c3cc(C)n(C)n3)sc2c1 (stereo not drawn)
33: Cc1ccc2nc(C3CCCCC3)c(Cc3ccccc3)n2c1
34: CC(C)C[C@@H]1COc2cccc(N3CCC[C@@H]3CO)c2S(=O)(=O)N1
35: COc1ccc(-n2nnnc2C(c2cccs2)N2CCC3(CC2)C(=O)NCN3c2ccccc2)cc1 (stereo not drawn)
36: CSc1ccc(OC2(C)CCN(Cc3ccc(-c4ccccn4)cc3)C2)cc1 (stereo not drawn)
37: CCCCCN1C(=O)c2cc(OC)ccc2[C@@]2(C(=O)OCC)Cc3cc(OC)ccc3[C@@H]12
38: COCCNC(=O)C1(C)CCCN(C(=O)c2ccccc2F)C1 (stereo not drawn)
39: COCCNC(=O)C1CCCN(C(=O)c2cc(C(C)(C)C)nn2C)CC1 (stereo not drawn)
40: CCCCN1C(N)=NC[C@@H]1c1ccccc1
screen / no.	31	32	33	34	35	36	37	38	39	40
2A StopGo	-20%	17%	?	-12%	4%	0%	3.2µM*	-16%	-24%	-4%
RE007 growth inh	-26%	0%	?	1%	-1%	?	-24%	-8%[18.4 µM]	-2%[18.4 µM]	-5%

41: FC(F)(F)c1nc2nc(Cl)c(Cl)nc2[nH]1
42: O=C(Nc1ccc(Cl)cc1)c1ccc2sc([C@@H]3O[C@H](CO)[C@@H](O)[C@H]3O)nc2c1
43: CN(C(=O)COC(=O)c1cc([N+](=O)[O-])ccc1N1CCOCC1)C1CCCCC1
44: C[C@H](CO)N1C[C@H](C)[C@H](CN(C)Cc2ccccc2)Oc2ncc(Br)cc2C1=O
45: COc1ccc(CN2CCC3CC2c2cc(Cl)ccc23)cc1 (stereo not drawn)
46: NC(=O)c1cccc(-c2coc3c(C(=O)NCc4ccccc4)cccc23)c1
47: O=C(CN1c2cccc3cccc(c23)S1(=O)=O)NCc1ccccc1Cl
48: CN1CCN(c2cc(-c3ccc4ccccc4c3)nc3ccnn23)CC1
49: S=C1NCCC12C(=S)Nc1ccccc12 (stereo not drawn)
50: O=C(C[C@@H]1CC[C@@H]2[C@H](COC[C@@H](O)CN2Cc2cc(F)ccc2F)O1)NCc1ccc(F)cc1
screen / no.	41	42	43	44	45	46	47	48	49	50
2A StopGo	-10%	5%	-30%	0%	-26%	-19%	-16%	-8%	-7%	-11%
RE007 growth inh	25%	-20%[18.4 µM]	-5%	-16%	?	6%	4%	5%	-7%	-3%

51: COc1cccc(C(NC(C)=O)c2nc(-c3ccc(F)c(Cl)c3)cs2)c1 (stereo not drawn)
52: CC(C)(C)OC(=O)Nc1ccccc1-n1nnnc1C(C(=O)c1ccccc1)N1CCN(c2ccccn2)CC1 (stereo not drawn)
53: CCCCNC(=O)C1c2ccccc2OCC(=O)N1Cc1ccc2c(c1)OCO2 (stereo not drawn)
54: CC(=O)N(CC(C)C(=O)O)c1c(I)cc(I)c(N)c1I (stereo not drawn)
55: CNC(=O)c1ccsc1NC(=O)CS(=O)(=O)c1ccc(F)cc1
56: CCNC(=O)C1(C)CCN(C(=O)c2ccccc2OC(F)(F)F)C1 (stereo not drawn)
57: CON(C)S(=O)(=O)c1cccc(C(=O)Nc2cccc(S(=O)(=O)NC3=NCCCCC3)c2)c1
58: CCN(CC)C(=O)c1cccc(-c2csc(C(O)c3ccc(F)c(F)c3)n2)c1 (stereo not drawn)
59: CCC(=O)c1cn([C@@H](CCC(OC)OC)CC(=O)OC(C)(C)C)cc1CC
60: CCc1nc2ccc(C(=O)N3CCN(C(=O)c4ccco4)CC3)cn2c1N(C)Cc1nccn1C
screen / no.	51	52	53	54	55	56	57	58	59	60
2A StopGo	0%	27%	-12%	-13%	-25%	-23%	?	?	-12%	-10%
RE007 growth inh	7%	-16%	-5%	10%[18.4 µM]	7%	4%	0%	-2%	12%	4%

61: Cc1nnc2sc(SCC(=O)N3CCc4ccccc43)nn2c1=O
62: C[C@@H]1CN([C@@H](C)CO)C(=O)CCCn2nncc2CO[C@H]1CN(C)S(=O)(=O)c1ccc(Oc2ccccc2)nc1
63: COc1ccc(-c2ccc3oc(-c4ccsc4)cc3c2)cc1
64: CC(C)Cn1cc(-c2cccc3nccn23)cn1
65: COc1cccc(NC(=O)CN(C)C(=O)/C=C/c2ccc(S(=O)(=O)N3CCCCCC3)cc2)c1
66: C[C@H]1CN([C@@H](C)CO)S(=O)(=O)c2ccc(Br)cc2O[C@@H]1CN(C)C(=O)c1cccnc1
67: O=C1NC[C@H](CCCCN2CCN(CCC3CCCCC3)C(=O)C2=O)N(CCc2ccccc2)C1=O
68: C=C1CCN([C@@H](CC(C)C)C(=O)NCCCc2ccccc2)S(=O)(=O)c2ccccc21
69: COc1cccc(C(=O)Nc2ccc3c(c2)OC[C@H](C)N(CCc2ccccc2)C[C@@H](C)[C@@H](OC)CN(C)C3=O)c1
70: CC(C)c1cccc(C(C)C)c1Nc1cn[nH]c1
screen / no.	61	62	63	64	65	66	67	68	69	70
2A StopGo	-25%	-1%	49%[activator]	0%	-15%	-7%	-13%	-13%	-4%	0%
RE007 growth inh	-11%	-2%	-6%	-26%	-7%	0%	-10%	-3%	-18%	6%

71: O=C(NCCO)c1cccc(-c2cnc3c(Nc4cccc(OC(F)(F)C(F)F)c4)nccn23)c1
72: Cn1c(C(=O)NN)cc2cc(OCc3ccccc3)ccc21
73: OC[C@H]1O[C@@H](c2nc(-c3ccc(CN4CCOCC4)cc3)no2)[C@H](O)[C@@H](O)[C@H]1O
74: CCOC(=O)N1CCN(CC(=O)Nc2nccs2)CC1
75: COC(=O)C[C@@H]1OC[C@H](Cc2ccccc2)N1S(=O)(=O)c1ccc(C)cc1
76: CCCC(=O)N(Cc1cc2cc(OC)ccc2[nH]c1=O)c1ccc(OC)cc1
77: CCOc1ccc(NC(=O)c2c(O)[nH]c(=O)[nH]c2=O)cc1
78: COc1ccc(CN2C[C@H]3CON(C)[C@H]3C[C@H]2c2ccc(-c3cccc(F)c3)cc2)cc1
79: O=C1CCN(C(=O)Cc2ccccc2)c2ccccc21
80: Cc1ccc(C(O)c2ncc(-c3ccccc3C)[nH]2)cc1F (stereo not drawn)
screen / no.	71	72	73	74	75	76	77	78	79	80
2A StopGo	-24%	60%[activator]	-22%	-29%	-2%	?	19%	0%	0%	?
RE007 growth inh	-14%	8%	-9%	-13%	0%	2%	-6%	8%	-2%	-21%[18.4 µM]

81: CO[C@@H]1CN(C)C(=O)c2cc(NC(=O)NC3CCCCC3)ccc2OC[C@@H](C)N(CC2CCOCC2)C[C@@H]1C
82: C#CCN(C[C@H]1[C@H](OC(=O)NC2CC2)[C@H](OC(=O)NC2CC2)C[C@H]2C(=O)N(c3ccccc3)C(=O)[C@@H]12)S(=O)(=O)c1ccc(C)cc1
83: COc1ccc(-c2c(C(=O)c3ccccc3)[nH]c(N)c2C(=O)NC2CC2)cc1OC
84: O=C(CN1CCN(S(=O)(=O)c2ccc3c(c2)OCCO3)CC1)Nc1ccccc1Br
85: CN(C)c1ncnc2c1ncn2[C@H]1CN(Cc2ccc(-c3ccccc3)cc2)C[C@@H](CO)O1
86: C[C@@H]1CN([C@H](C)CO)C(=O)CCCn2nncc2CO[C@H]1CN(C)Cc1ccc(C(F)(F)F)cc1
87: CCCCN(C=O)c1c(CC)nc2ccc(C(=O)NCCN(C)C)cn12
88: Cc1cc(Br)cn2c(Cc3ccccc3)c(-c3cccc(Br)c3)nc12
89: N#Cc1cccc(-c2csc(C(O)(c3ccccc3)C(F)(F)F)n2)c1 (stereo not drawn)
screen / no.	81	82	83	84	85	86	87	88	89
2A StopGo	-17%	-25%	-1%	-5%	0%	-22%	-6%	-12%	8%
RE007 growth inh	-10%	-18%	1%	-17%	-14%	17%	4%	3%	?

# Assay outcomes from PubChem.
